GCN5L2 inh – inhibitors of human GCN5L2 histone acetyltransferase; 390,000 tested, 0.21% active; Potency, µM (top dose mostly 58.9 µM), for inactives: top-dose activity change, negative = inhibition, usual class: inhibitors; Q92830; GCN5L2 HAT assay, ThioGlo1 CoA-SH fluorescence; active = well fitted inhibition curve with a large enough effect; inconclusive = small, poorly fitted or top-dose-only effect, or another doubt; inactive = no such curve, though single readings can be large or run the other way
Target sequence (Q92830 whole entry, looked up): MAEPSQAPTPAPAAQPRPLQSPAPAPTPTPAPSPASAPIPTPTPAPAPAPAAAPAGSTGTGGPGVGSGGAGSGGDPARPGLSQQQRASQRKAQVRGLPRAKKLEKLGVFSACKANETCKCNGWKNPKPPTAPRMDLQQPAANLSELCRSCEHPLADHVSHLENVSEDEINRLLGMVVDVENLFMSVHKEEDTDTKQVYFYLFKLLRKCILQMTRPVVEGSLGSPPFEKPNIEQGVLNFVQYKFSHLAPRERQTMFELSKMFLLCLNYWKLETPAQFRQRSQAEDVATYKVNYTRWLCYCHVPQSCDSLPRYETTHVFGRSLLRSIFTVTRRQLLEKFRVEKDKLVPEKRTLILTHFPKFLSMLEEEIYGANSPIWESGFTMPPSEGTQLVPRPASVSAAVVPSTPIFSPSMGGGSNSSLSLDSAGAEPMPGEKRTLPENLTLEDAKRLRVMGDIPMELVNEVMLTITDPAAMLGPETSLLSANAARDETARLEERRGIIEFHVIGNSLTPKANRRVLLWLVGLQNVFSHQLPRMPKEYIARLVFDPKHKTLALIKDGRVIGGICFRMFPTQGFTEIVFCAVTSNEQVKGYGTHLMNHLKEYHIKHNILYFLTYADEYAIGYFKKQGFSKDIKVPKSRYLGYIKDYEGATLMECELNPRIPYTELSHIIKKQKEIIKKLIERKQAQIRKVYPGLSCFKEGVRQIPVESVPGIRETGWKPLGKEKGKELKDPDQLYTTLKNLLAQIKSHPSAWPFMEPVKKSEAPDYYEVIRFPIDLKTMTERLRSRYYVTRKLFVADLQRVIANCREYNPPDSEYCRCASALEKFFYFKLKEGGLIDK
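GCN5L2 (20nM final) in 50mM HEPES, 0.1mM EDTA pH 7.5, 0.01% Tween-20 was preincubated 15 min at room temperature with compound, then given ThioGlo1 (50uM), H3(1-25) peptide (75uM) and acetyl-CoA (70uM); CoA-thiol fluorescence (Ex340/Em540) was read at 0 and 20 min.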
Starred values were filed as active, the others as inactive; ? = inconclusive; & = joins results of further samples; [ ] = another dose, or the depositor's remark. % is scaled to controls: 0 for no effect and ±100 for the full control effect; potency is read from the fitted curve at half-maximal effect. An excerpt; most or all hits stand in other tables.

SMILES	GCN5L2 inh
CCOC(=O)C1=C(CSc2n[nH]c(N)n2)NC(=O)NC1C (stereo unspecified)	-5%
Cc1cc(=O)oc(C)c1C(=O)NCC1CCCO1 (stereo unspecified)	-1%
COc1ccc(C(=O)N2CCCCCC2)cc1S(=O)(=O)N1CCOCC1	2%
Cc1noc(C)c1S(=O)(=O)Nc1ccc(C(=O)Nc2ccc(Br)cc2)cc1	-7%
O=C(NCc1ccccc1)N(Cc1nc2ccccc2c(=O)[nH]1)C1CCCC1	3%
CCN(CC)C(=O)[C@H]1C[C@H](CC(=O)NC(C)(C)C)C(=O)N2CCc3c([nH]c4ccc(Cl)cc34)[C@]12C	-3%
CC(C)Oc1ccc(C(=O)Nc2cccc3cccnc23)cc1	-8%
CC1CN(C(=S)Nc2ccc(Br)cc2)CC(C)O1 (stereo unspecified)	-9%
Cn1c(/N=C/c2cccs2)nc2ccccc21	-5%
Cc1cccc2sc(N3CCN(C(=O)CS(=O)(=O)c4ccc(F)cc4)CC3)nc12	-13%
COc1ccccc1C(=O)Nc1nnc(-c2ccc(F)cc2)s1	2%
O=C1NC2NC(=O)N(C(Cc3ccccc3)C(=O)O)C2N1 (stereo unspecified)	1%
COc1ccccc1N1CCN(C(=O)c2cc3c(=O)n(Cc4ccco4)ccc3nc2C)CC1	13%
COc1ccc(NC(=O)C2CCN(c3ncnc4c3nc3n4CCCCC3)CC2)c(OC)c1	-1%
C=CCN(C(=O)CNS(=O)(=O)c1ccccc1)C(C(=O)NCCOC)c1cccnc1 (stereo unspecified)	-5%
CSc1nnc(C)c(=O)[nH]1	1%
Cc1nn(Cc2c(F)c(F)c(F)c(F)c2F)c(C)c1NC(=O)c1ccc(COc2ccccc2Cl)o1	-17%
CN1CCN(C2=C(Cl)C(=O)N(CCc3ccccc3)C2=O)CC1	-20%
Cc1ccc(NC(=O)c2cnccn2)nc1	-9%
CCC(=O)NCc1ccc2[nH]c(C)cc2c1	-3%
O=C(O)C1CCN(c2ncccn2)CC1	-3%
CCOC(=O)C(CCCCCOc1ccccc1[N+](=O)[O-])C(=O)OCC	-8%
CCn1c(=O)c2cc(C(=O)N(C)c3cc(Cl)c(OC)cc3OC)sc2c2ccccc21	-3%
COc1cccc(NC(=O)CN(C)CC(=O)Nc2ccc(Br)cc2)c1	-12%
C/C(=N\Nc1ncc(Cl)cc1Cl)c1ccc(S(=O)(=O)NCc2ccco2)cc1	-11%

25 of the compounds above, in markdown.
| mol | GCN5L2 inh |
| --- | --- |
| CCOC(=O)C1=C(CSc2n[nH]c(N)n2)NC(=O)NC1C (stereo unspecified) | -5% |
| Cc1cc(=O)oc(C)c1C(=O)NCC1CCCO1 (stereo unspecified) | -1% |
| COc1ccc(C(=O)N2CCCCCC2)cc1S(=O)(=O)N1CCOCC1 | 2% |
| Cc1noc(C)c1S(=O)(=O)Nc1ccc(C(=O)Nc2ccc(Br)cc2)cc1 | -7% |
| O=C(NCc1ccccc1)N(Cc1nc2ccccc2c(=O)[nH]1)C1CCCC1 | 3% |
| CCN(CC)C(=O)[C@H]1C[C@H](CC(=O)NC(C)(C)C)C(=O)N2CCc3c([nH]c4ccc(Cl)cc34)[C@]12C | -3% |
| CC(C)Oc1ccc(C(=O)Nc2cccc3cccnc23)cc1 | -8% |
| CC1CN(C(=S)Nc2ccc(Br)cc2)CC(C)O1 (stereo unspecified) | -9% |
| Cn1c(/N=C/c2cccs2)nc2ccccc21 | -5% |
| Cc1cccc2sc(N3CCN(C(=O)CS(=O)(=O)c4ccc(F)cc4)CC3)nc12 | -13% |
| COc1ccccc1C(=O)Nc1nnc(-c2ccc(F)cc2)s1 | 2% |
| O=C1NC2NC(=O)N(C(Cc3ccccc3)C(=O)O)C2N1 (stereo unspecified) | 1% |
| COc1ccccc1N1CCN(C(=O)c2cc3c(=O)n(Cc4ccco4)ccc3nc2C)CC1 | 13% |
| COc1ccc(NC(=O)C2CCN(c3ncnc4c3nc3n4CCCCC3)CC2)c(OC)c1 | -1% |
| C=CCN(C(=O)CNS(=O)(=O)c1ccccc1)C(C(=O)NCCOC)c1cccnc1 (stereo unspecified) | -5% |
| CSc1nnc(C)c(=O)[nH]1 | 1% |
| Cc1nn(Cc2c(F)c(F)c(F)c(F)c2F)c(C)c1NC(=O)c1ccc(COc2ccccc2Cl)o1 | -17% |
| CN1CCN(C2=C(Cl)C(=O)N(CCc3ccccc3)C2=O)CC1 | -20% |
| Cc1ccc(NC(=O)c2cnccn2)nc1 | -9% |
| CCC(=O)NCc1ccc2[nH]c(C)cc2c1 | -3% |
| O=C(O)C1CCN(c2ncccn2)CC1 | -3% |
| CCOC(=O)C(CCCCCOc1ccccc1[N+](=O)[O-])C(=O)OCC | -8% |
| CCn1c(=O)c2cc(C(=O)N(C)c3cc(Cl)c(OC)cc3OC)sc2c2ccccc21 | -3% |
| COc1cccc(NC(=O)CN(C)CC(=O)Nc2ccc(Br)cc2)c1 | -12% |
| C/C(=N\Nc1ncc(Cl)cc1Cl)c1ccc(S(=O)(=O)NCc2ccco2)cc1 | -11% |

Other compounds follow:
SMILES	GCN5L2 inh
Oc1cccnc1SCc1ccccc1	-6%
CCc1ccc(OCCNC(=O)c2cccs2)cc1	1%
CC(OC(=O)c1ncc(Cl)c(Cl)c1Cl)C(=O)NC1(C#N)CCCCC1 (stereo unspecified)	-8%
Cc1c(NC(=O)c2ccc(F)c(S(=O)(=O)N3CCOCC3)c2)c(=O)n(-c2ccccc2)n1C	1%
Cc1ccc(C(=O)OCC(=O)NCCc2ccccc2)cc1C	0%
C=CCn1c(COc2ccccc2F)nnc1SCC(=O)NC(=O)NCc1ccco1	-10%
CC[N+](CC)(CC)C/C=C/CN1CCCCC1	-2%
O=C(CN1C(=O)NC2(CCCC2)C1=O)OCc1ccccc1	-14%
CC(O)c1nc2ccccc2n1CC(=O)N1CCN(c2ccccc2)CC1 (stereo unspecified)	-10%
O=C(O)c1cc(N/N=C/C(Cl)=C/c2ccccc2)ccc1Cl	-8%
Cc1cccc(OCC(=O)Nc2ccc(NC(=O)c3ccco3)cc2)c1	-6%
C[C@H]1O[C@H]1P(=O)(O)O	0%&-1%
O=C(COC(=O)Cc1c(Cl)cccc1Cl)NCCC1=CCCCC1	-2%
Cc1cc(NC(=O)Cn2ccsc2=N)c([N+](=O)[O-])cc1C	-5%
CCCCN(CCCNC(=O)c1cc(Nc2ccc(OC)cc2OC)nc2ccccc12)Cc1ccccc1	-9%
Cc1ccc(S(=O)(=O)NCC(=O)OCc2ccccc2Br)cc1	-3%
O=C1CN(C(=O)c2ccccc2)C(c2ccc(F)cc2)c2cc(Br)ccc2N1 (stereo unspecified)	-1%&-1%
CCCN(Cc1cc2cc(C)ccc2[nH]c1=O)S(C)(=O)=O	-3%
CCCCNC(=O)Cn1c(=O)c2c(ncn2CCC(C)C)n(Cc2ccccc2)c1=O	0%
COC(=O)c1c(C)oc(C)c1S(=O)(=O)NCc1ccco1	-4%
COc1ccc(-c2cc3nc(C)c(CCC(=O)Nc4ccc(F)cc4F)c(C)n3n2)c(OC)c1	-3%
CCn1cc(C(=O)O)c(=O)c2cc(F)c(N3CCN(C)CC3)cc21	-6%&1%
CC(=O)C1=C(C)NC(=O)CC1c1ccc(F)cc1 (stereo unspecified)	4%
O=C(Nc1nc2c(F)cccc2s1)c1ccc(S(=O)(=O)N2CCCc3ccccc32)cc1	-9%
COc1cccc(C(=O)N2CCN(CCCc3ccccc3)CC2)c1OC	-2%
(list continues)
SMILES	GCN5L2 inh
N#Cc1c(-n2ccnc2)cccc1-n1ccnc1	-17%
CC1(C)N=C(SCC(=O)Nc2ccc(Cl)cc2Cl)C(c2ccccc2)=N1	-2%
Cc1cc(C(=O)N/N=C/c2cccc3ccccc23)c(C)o1	-6%
N#Cc1c(-c2ccc(Cl)cc2)ccnc1N1CCOCC1	-1%
S=C(NC1CCCCC1)N1CCC([C@H]2C=NC=N2)CC1	0%[21.4 µM]
Cc1cccc(Cn2cnc3ccccc32)c1	-3%[0.501 µM]
N#C/C(=C\c1cccc(Oc2ccc(C(F)(F)F)cc2[N+](=O)[O-])c1)c1nc2ccccc2[nH]1	-7%
CCCCNC(=O)C1CC(=O)N(CCC(C)C)C1 (stereo unspecified)	8%
Cc1cc(O)cc2c(=O)c3ccccc3sc12	-24%
Cc1ccc(NC(=O)N2CCC(C(=O)Nc3ccc(C)cc3C)CC2)cc1	-19%
COc1ccc(N(CCC(=O)NCCc2ccccc2)S(=O)(=O)c2ccc(C)cc2C)cc1	-4%
Cc1cccc(OCC(=O)N(C)CC(=O)Nc2cccc(F)c2)c1C	0%
Cc1cc(-c2ccccc2)[nH]c(=O)c1S(=O)(=O)c1ccccc1	-15%
CCn1c(COc2ccccc2C)nnc1SCC(=O)N1CCC(C)CC1	1%
Cc1ccccc1Oc1ncnc2sccc12	-1%
Cc1cccc(C)c1NC(=O)N1CCN(C2CCCCC2)CC1	-1%
Nc1c(Cl)cc(NC(=O)c2ccccc2C(=O)O)cc1Br	2%
Cc1ccc(S(=O)(=O)NC2CCCCC2)cc1	-4%
Nc1nc(SCC(=O)Nc2cc(-c3ccccc3)nn2-c2ccccc2)n[nH]1	-7%
CC(C)c1ccc(/C=C2\Oc3c(ccc(O)c3CN3CCN(C)CC3)C2=O)cc1	-10%
CNC(=O)CN(c1ccc(OC)cc1)S(=O)(=O)c1ccc(F)cc1	-2%
CCCNC(=O)C(Cc1ccccc1)NC(=O)Cc1ccccc1 (stereo unspecified)	1%
CC1=Nc2cc(Cl)ccc2Oc2ccccc21	-4%
CC(C)(C)OC(=O)N1Cc2ccccc2C[C@H]1C(=O)NCC(=O)Nc1ccc2c(c1)OCCO2	-1%
COc1ccccc1NC(=O)c1[nH]c(C)c(C(C)=O)c1C	-6%

Part of the list above in another layout.
| smiles | GCN5L2 inh |
| --- | --- |
| CC(C)c1ccc(/C=C2\Oc3c(ccc(O)c3CN3CCN(C)CC3)C2=O)cc1 | -10% |
| CNC(=O)CN(c1ccc(OC)cc1)S(=O)(=O)c1ccc(F)cc1 | -2% |
| CCCNC(=O)C(Cc1ccccc1)NC(=O)Cc1ccccc1 (stereo unspecified) | 1% |
| CC1=Nc2cc(Cl)ccc2Oc2ccccc21 | -4% |
| CC(C)(C)OC(=O)N1Cc2ccccc2C[C@H]1C(=O)NCC(=O)Nc1ccc2c(c1)OCCO2 | -1% |

More structures follow.
SMILES	GCN5L2 inh
Cc1[nH]c2ccccc2c1C(c1ccncc1)N1CCN(c2ccccc2F)CC1 (stereo unspecified)	-12%
Clc1ccc(CSc2nnc3ccccn23)c(Cl)c1	-10%
CCOC(=O)c1sc(NC(=O)CSc2nnnn2-c2ccccc2)nc1C	-4%
Nc1ncc(Br)cc1Br	-2%
CCn1cc(C(=O)NCc2ccco2)c(=O)c2cc(S(=O)(=O)N3CC(C)CC(C)C3)ccc21 (stereo unspecified)	-22%
COc1cccc(CNC(=O)c2ccc(C)c(S(=O)(=O)N3CCCCC3)c2)c1	-9%
O=C(NC(=O)c1ccccc1)Nc1ccc(-c2cnco2)cc1	1%
c1ccc(-c2nnc(-c3c[nH]c4ccccc34)nc2-c2ccccc2)cc1	-6%
CCN(CC)Cc1c(O)ccc2occ(C(=O)c3ccc(OC)cc3)c12	-2%
CCOC(=O)Cc1csc(NC(=O)Nc2cccc(OC)c2)n1	-5%
O=C(NC(=S)Nc1ccc(N2CCOCC2)cc1)c1cccs1	0%
O=C(c1ccncc1)c1ccc(N2CCN(C3CC(=O)N(Cc4ccccc4)C3=O)CC2)cc1 (stereo unspecified)	-25%
O=C(CSc1ccc(F)cc1)Nc1cccc(S(=O)(=O)N2CCOCC2)c1	-2%
CCn1c(Cc2ccc(OC)cc2)nnc1SCC(=O)Nc1ccc(N2CCOCC2)cc1	0%
Cc1[nH]nc2c1C(c1ccco1)C(C#N)=C(N)O2 (stereo unspecified)	-3%
CN1CCN(NC(=O)CSc2ccc(Cl)cc2Cl)CC1	2%
CCNC(=S)N/N=C1\CCCCc2ccccc21	2%
CCC(=O)N1CCN(c2ccc(NC(=S)NC(=O)c3ccc(OC)c([N+](=O)[O-])c3)cc2)CC1	-8%
CCCCNC(=O)c1onc(CSc2cc(C)cc(C)c2)c1C(=O)O	-20%
CC1CN(Cc2nc3c(c(=O)n(C)c(=O)n3C)n2CC(O)CO)CC(C)O1 (stereo unspecified)	7%
O=C1CCCCCN1CSc1nc2ccccc2s1	?
Cn1nc(C(=O)N2CCN(c3ccc([N+](=O)[O-])cc3)CC2)c2c1-c1ccccc1S(=O)(=O)C2	1%
CCOc1ccccc1NC(=O)c1cc(S(=O)(=O)N2CCC3(CC2)OCCO3)ccc1F	-5%
CCOc1cc(NC(=O)c2ccccn2)c(OCC)cc1NC(=O)c1ccc(OC)cc1	-13%
CNC(=O)c1ccccc1Sc1ccccc1C#N	-6%
Going on with the list.
SMILES	GCN5L2 inh
COc1ccc(/C=N/NC(=O)c2cccnc2)cc1COc1ccc(NC(C)=O)cc1	-4%
CCOc1cc(C(=O)NCCc2csc3nc(-c4ccc(C)cc4)nn23)cc(OCC)c1OCC	-4%
COCCSc1nnc(NC(=O)CSc2ccccc2)s1	-1%
COc1cc(C(=O)OCC(=O)Nc2cccc(S(=O)(=O)N3CCOCC3)c2)ccc1OCC(C)C	-4%
CCOC(=O)c1c(C)[nH]c(C)c1S(=O)(=O)NCC(=O)Nc1ccccn1	-6%
COc1ccccc1N1CCSC1C(N)=O (stereo unspecified)	-8%
OC[C@@H](O)C(O)[C@H](O)[C@@H](O)CO (stereo partly specified)	39%[activator]
